BJeLR viab HTS – BJeLR cell viability reduction; 30,000 tested, 0.64% active; viability loss activity score, % (concentration not given with the values); BJeLR fibroblasts viability, CellTiterGlo ATP luminescence, 48 h; HRASV12, hTERT and SV40 LT/ST transformed; AID 2275; in the data active = viability loss activity score above about 50%; about a fifth of its hits are not listed in these tables;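 also: higher score means fewer live cells and less ATP luminescence; stock transfer was 50 or 100 nL into about 30 µL; 0% = vehicle wells and 100% = a reference killing control; one replicate is shown; the record names a cut of 85%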
A1 inh – inhibitors of A1; MEF A1-2A-BIM cells, caspase-Glo luminescence, 3 h; percent of clofoctol signal, DMSO as zero; AID 2241; 21,000 tested, 0.51% active; caspase activation, % (concentration not given with the values);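 active = most replicate scores above 10, or exactly half above 10 with mean activity above 10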;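 also: effector caspase 3 and 7 activity cleaving a DEVD luciferin substrate; 50 nL library stock added to about 30 µL; numbers are from one replicate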
Active calls of the source: *; . = not tested or not shown. Some of the compounds tested, so the mix of outcomes need not match the whole.

no.	mol	A1 inh	BJeLR viab HTS
1	CC(C)Cc1ccc(C(C)C(=O)Nc2ccc(Cl)cc2)cc1 (centres undefined)	-0.7	7.9
2	CNC[C@@H]1Oc2ccc(NC(=O)Cc3cn(C)c4ccccc34)cc2C(=O)N([C@@H](C)CO)C[C@H]1C	-0.5	1.0
3	C[C@H]1CN([C@@H](C)CO)C(=O)c2cc(NS(=O)(=O)c3ccccc3)ccc2O[C@H]1CN(C)C(=O)Nc1cccc2ccccc12	-0.5	8.2
4	Cc1ccc(S(=O)(=O)Nc2ccc3nc(-c4ccccn4)[nH]c3c2)cc1	.	-1.5
5	C[C@H](CO)N1C[C@H](C)[C@H](CN(C)Cc2ccc(C(F)(F)F)cc2)Oc2ccc(NC(=O)CCCN(C)C)cc2C1=O	-0.3	0.1
6	CNC[C@H]1Oc2c(NC(=O)Nc3ccc(OC)cc3)cccc2C(=O)N([C@@H](C)CO)C[C@H]1C	.	-1.1
7	COc1ccc(S(=O)(=O)N(C)C[C@@H]2Oc3ccc(NC(=O)Nc4c(C)noc4C)cc3C(=O)N([C@H](C)CO)C[C@H]2C)cc1	-0.3	-0.2
8	CCOC(=O)N1N=C(C)CC1(O)c1cccnc1 (centres undefined)	2.6	5.1
9	Cc1ccc(N2C(=O)/C(=C/C=C/c3ccccc3)SC2=S)cc1	-0.2	-1.5
10	CC1=NN(c2ccccc2)C(c2ccc(OCC(=O)N3CCCC3)cc2)C1 (centres undefined)	.	-7.4
11	Cc1ccc(C(=O)c2oc3ccccc3c2NC(=O)C2COc3ccccc3O2)cc1 (centres undefined)	.	2.7
12	CCC(=O)Nc1cccc(-c2nc3ccccc3o2)c1	0.1	-0.2
13	C[C@@H]1CN([C@@H](C)CO)C(=O)c2cccc(NS(=O)(=O)c3cn(C)cn3)c2O[C@@H]1CN(C)Cc1ccc(C(=O)O)cc1	.	-7.5
14	O=C(C1CC(=O)N(c2ccccc2)C1)N(Cc1ccccc1)Cc1ccccc1 (centres undefined)	0.1	0.5
15	N#C/C(=C\c1ccc(Cl)c(Cl)c1)c1ccc(NC(N)=O)cc1	0.0	2.8
16	C[C@H]1CN([C@@H](C)CO)C(=O)c2cccc(NC(=O)C3CCOCC3)c2O[C@H]1CN(C)Cc1ccc(C(F)(F)F)cc1	.	2.1
17	C[C@H]1CN([C@@H](C)CO)C(=O)c2cccc(NC(=O)c3nc4ccccc4s3)c2O[C@H]1CN(C)S(=O)(=O)c1cccs1	.	-7.9
18	Cc1ccc2cc3cc(C(=O)NCc4cccs4)sc3nc2c1	.	-0.2
19	CCN(CC)C(=O)CSc1nc(N)c(C#N)c(CC(C)C)c1C#N	0.9	3.0
20	CC(=O)Oc1c(Sc2c(F)c(F)c(F)c(F)c2F)c(C)nn1C(C)(C)C	.	-2.6
21	COc1ccc(NC(=O)N(C)C[C@@H]2Oc3ccc(NC(=O)Nc4c(C)noc4C)cc3C(=O)N([C@H](C)CO)C[C@H]2C)cc1	0.7	1.5
22	COc1ccc(CNC(=O)c2cccn3c(=O)c4c5c(sc4nc23)CCCC5)cc1	.	4.7
23	Cc1noc(C)c1S(=O)(=O)Nc1ccc2c(c1)C(=O)N([C@H](C)CO)C[C@H](C)[C@@H](CN(C)C(=O)Nc1cccc3ccccc13)O2	-0.3	2.2
24	C[C@H]1CN([C@@H](C)CO)C(=O)c2cc(NC(=O)Nc3ccc(C(F)(F)F)cc3)ccc2O[C@H]1CN(C)C	-0.1	3.9
25	C[C@H](CO)N1C[C@H](C)[C@H](CN(C)C(=O)Nc2ccc(F)cc2)Oc2c(cccc2N(C)C)C1=O	.	0.5
26	CC1CCN(C(=O)CSc2nc(-c3ccco3)nc3c2c(=O)n(C)c(=O)n3C)CC1	.	3.4
27	Cc1noc(C)c1NC(=O)Nc1ccc2c(c1)C(=O)N([C@@H](C)CO)C[C@H](C)[C@@H](CN(C)Cc1ccncc1)O2	0.0	1.4
28	CC1CCN(S(=O)(=O)c2cn(CC(=O)N(C)Cc3ccccc3)c(=O)c3ccccc23)CC1	.	-3.8
29	C[C@@H]1CN([C@@H](C)CO)C(=O)c2cc(NC(=O)Nc3ccc(F)cc3)ccc2O[C@H]1CN(C)CC1CCCCC1	0.3	-4.2
30	C[C@H](CO)N1C[C@H](C)[C@H](CN(C)Cc2ccc(C(F)(F)F)cc2)Oc2c(NC(=O)NC3CCCCC3)cccc2C1=O	.	3.7
31	CNC[C@@H]1Oc2c(NC(=O)c3cc(C)nn3C)cccc2C(=O)N([C@H](C)CO)C[C@@H]1C	.	-3.6
32	C[C@@H]1CN([C@@H](C)CO)C(=O)c2cccc(NS(=O)(=O)c3ccc(Cl)cc3)c2O[C@@H]1CN(C)C(=O)Nc1ccc(F)cc1	.	-0.4
33	COc1ccc(NC(=O)N(C)C[C@@H]2Oc3ccc(NC(=O)CCCN(C)C)cc3C(=O)N([C@@H](C)CO)C[C@@H]2C)cc1	-0.4	3.9
34	C[C@@H]1CN([C@H](C)CO)C(=O)c2cc(NS(=O)(=O)c3cccs3)ccc2O[C@H]1CN(C)C(=O)Nc1ccc(F)cc1	-0.2	4.4
35	CC12C=CC(=O)C=C1CCC1C2=CCC2(C)C1CC[C@@H]2C(=O)CN1CCN(c2cc(N3CCCC3)nc(N3CCCC3)n2)CC1 (some centres undefined)	0.2	-4.8
36	C[C@H](CO)N1C[C@H](C)[C@@H](CN(C)S(=O)(=O)c2ccccc2)Oc2ccc(NC(=O)Nc3ccccc3)cc2C1=O	-0.1	-4.3
37	Cc1noc(C)c1S(=O)(=O)Nc1ccc2c(c1)C(=O)N([C@H](C)CO)C[C@H](C)[C@H](CN(C)Cc1ccc3c(c1)OCO3)O2	0.4	-3.1
38	N#Cc1ccccc1S(=O)(=O)Nc1ccc2c(c1)C(=O)OC2	.	0.2
39	CC(=O)n1c(/C=C2/C=c3cccc(C)c3=NC2=O)c(O)[nH]c1=S	0.2	2.5
40	CC(C)(C)c1ccc(N2C(=O)CCC2=O)cc1	-0.5	6.8
41	Cc1nn(-c2ccccn2)c2c1C(=O)CC(c1ccco1)C2 (centres undefined)	0.4	-1.6
42	Cc1cc(C)nc(/N=C(/NC(=O)Nc2cccc(Cl)c2)Nc2ccccc2C)n1	.	-1.6
43	COc1cc(C)c(C(=O)O[C@H]2[C@@H](OC(C)=O)[C@H](n3ccc(=O)[nH]c3=O)O[C@@H]2CO)c(OC)c1	0.9	-3.0
44	CC(C)NC(=O)Nc1ccc2c(c1)C(=O)N([C@H](C)CO)C[C@@H](C)[C@@H](CN(C)S(=O)(=O)c1ccc(Cl)cc1)O2	1.6	2.0
45	Nc1ccccc1CC(c1c[nH]c2ccccc12)c1c[nH]c2ccccc12	-0.9	7.1
46	C(=N\n1cncn1)/c1ccc(N2CCOCC2)cc1	0.9	1.4
47	C[C@H]1CN([C@@H](C)CO)C(=O)c2cc(NC(=O)Nc3ccc4c(c3)OCO4)ccc2O[C@H]1CN(C)S(=O)(=O)c1ccccc1	0.5	3.3
48	COC(=O)CN(C(=O)c1cc2ccccc2oc1=O)c1ccc(Br)cc1	-0.1	0.4
49	Cc1ccc(S(=O)(=O)N(C)C[C@@H]2Oc3ccc(NC(=O)Cc4cn(C)c5ccccc45)cc3C(=O)N([C@@H](C)CO)C[C@H]2C)cc1	0.4	-1.5
50	CC(C)OC(=O)C1=c2s/c(=C\c3cccnc3)c(=O)n2C(N)=C(C#N)C1c1cccnc1 (centres undefined)	-0.6	20
51	COC(=O)c1ccccc1NC(=O)c1cc(OC)cc(OC)c1	0.6	6.5
52	COC(=O)/C=C1\SC(=Nc2ccc(C)c(C)c2)N(c2ccc(C)c(C)c2)C1=O	-0.6	-1.5
53	C[C@H](CO)N1C[C@H](C)[C@@H](CN(C)S(=O)(=O)c2ccccc2)Oc2c(NS(C)(=O)=O)cccc2C1=O	.	-5.6
54	CCCn1c2ccccc2c2nnc(SC(CC)C(=O)Nc3nc(C)c(C(=O)OCC)s3)nc21 (centres undefined)	.	2.8
55	c1ccc(N=C2SC(=NC3CCCCC3)C3=C2CCCC3)cc1	0.1	-4.2
56	Fc1ccc(Nc2nc3ccccc3nc2Nc2ccc(F)cc2)cc1	6.0	4.8
57	C=C1C(=O)O[C@H]2[C@H]1[C@@H](OC(=O)C(C)(O)CCl)C(OC(C)=O)/C(C(=O)OC)=C\CC[C@@]1(C)O[C@H]21 (some centres undefined)	2.9	50*
58	C[C@H](CO)N1C[C@H](C)[C@@H](CN(C)C(=O)Nc2ccc3c(c2)OCO3)Oc2c(NC(=O)C3CC3)cccc2C1=O	.	-3.4
59	CC(C)NC(=O)Nc1ccc2c(c1)C(=O)N([C@@H](C)CO)C[C@H](C)[C@@H](CN(C)C(=O)Nc1ccc(F)cc1)O2	-0.1	-0.4
60	C[C@@H]1CN([C@@H](C)CO)C(=O)c2cc(NS(=O)(=O)c3ccccc3)ccc2O[C@H]1CN(C)Cc1ccccc1	0.5	2.2

(continued)
no.	mol	A1 inh	BJeLR viab HTS
61	Cc1cccc(OCC(=O)Nc2ccccc2)c1	-5.5	-1.6
62	COc1ccc(/C=C2/C(=O)C(C)(C(C)C)CCC2C)cc1 (centres undefined)	0.2	4.4
63	C[C@@H]1CN([C@H](C)CO)C(=O)c2cc(NC(=O)c3ccncc3)ccc2O[C@H]1CN(C)Cc1ccc(C(=O)Nc2ccccc2N)cc1	.	-5.2
64	C[C@@H]1CN([C@H](C)CO)C(=O)c2cccc(NS(=O)(=O)c3ccc(Cl)cc3)c2O[C@@H]1CN(C)C(=O)NC1CCCCC1	.	-0.5
65	COc1ccccc1CCn1cc(C#N)c(=O)[nH]c1=O	0.5	7.6
66	Cc1noc(C)c1S(=O)(=O)N(C)C[C@@H]1Oc2ccc(NS(C)(=O)=O)cc2C(=O)N([C@@H](C)CO)C[C@@H]1C	.	0.3
67	C[C@H](CO)N1C[C@H](C)[C@@H](CN(C)Cc2ccc3c(c2)OCO3)Oc2c(NC(=O)c3cnccn3)cccc2C1=O	.	5.8
68	C[C@@H]1CN([C@@H](C)CO)C(=O)c2cccc(NC(=O)Nc3ccc(F)cc3)c2O[C@@H]1CN(C)Cc1ccc(Cl)c(Cl)c1	.	4.7
69	CC(=O)Nc1ccc(NC(=O)[C@@H]2CCCC[C@@H]2C(=O)O)cc1	0.6	-6.7
70	Nc1c2c(nc3ccccc13)N(Cc1ccccc1)CC2	.	5.5
71	COc1ccc(-n2c(-c3cccc(OC)c3)csc2=NCc2cccnc2)cc1	-1.2	4.7
72	O=C(/C=C/c1ccc(Cl)cc1)Nc1nccs1	-6.7	0.9
73	C[C@@H]1CN([C@@H](C)CO)C(=O)c2cc(NS(=O)(=O)c3ccccc3)ccc2O[C@@H]1CN(C)Cc1ccc(Oc2ccccc2)cc1	-0.3	3.2
74	C[C@@H]1CN([C@H](C)CO)C(=O)c2cc(NS(=O)(=O)c3ccc(F)cc3)ccc2O[C@@H]1CN(C)C(=O)Nc1ccc(F)cc1	0.4	0.5
75	Cn1cccc1Cc1nnc(SCC(=O)N2CCCCC2)n1CCc1ccccc1	-0.5	1.0
76	Nc1nc(-c2ccncc2)ncc1S(=O)(=O)Cc1ccco1	-1.0	-3.0
77	C[C@@H]1CN([C@H](C)CO)C(=O)c2cc(NC(=O)Nc3ccc4c(c3)OCO4)ccc2O[C@H]1CN(C)Cc1ccc(Oc2ccccc2)cc1	0.3	2.8
78	CC(C)(C)C(=O)N1CCN(c2nc3ccc(Cl)cc3s2)CC1	0.1	1.8
79	O=C1c2ccccc2C(=O)N1CCC(=O)N(C1CCCCC1)C1CCCCC1	-0.6	-3.6
80	S=c1[nH]nc(CSCc2cccc3ccccc23)n1C1CCCCC1	-0.5	-7.5
81	CC(C)NC(=O)C1CC(c2ccc(F)cc2)=NO1 (centres undefined)	.	-7.3
82	COc1cccc(CC(=O)Nn2c(C)nc3ccccc3c2=O)c1	-0.1	5.6
83	C[C@H]1CN([C@@H](C)CO)C(=O)c2cc(NC(=O)Nc3ccccc3)ccc2O[C@H]1CN(C)C	1.0	5.4
84	Cn1cc(C(=O)NCCc2ccccc2)c(=O)c2cc(S(=O)(=O)N3CCCC3)ccc21	.	7.3
85	CCSc1nc(-c2ccccc2)nc2c1CCCC2	-1.1	0.8
86	COc1ccc(S(=O)(=O)N(C)C[C@@H]2Oc3c(NS(=O)(=O)c4cn(C)cn4)cccc3C(=O)N([C@H](C)CO)C[C@H]2C)cc1	.	6.5
87	Cc1nc(C(F)(F)F)ccc1C(=O)NCC(O)c1ccccc1 (centres undefined)	0.9	5.6

5 records drawn at random from the list so far, as already listed:
no.	mol	A1 inh	BJeLR viab HTS
11	Cc1ccc(C(=O)c2oc3ccccc3c2NC(=O)C2COc3ccccc3O2)cc1 (centres undefined)	.	2.7
59	CC(C)NC(=O)Nc1ccc2c(c1)C(=O)N([C@@H](C)CO)C[C@H](C)[C@@H](CN(C)C(=O)Nc1ccc(F)cc1)O2	-0.1	-0.4
83	C[C@H]1CN([C@@H](C)CO)C(=O)c2cc(NC(=O)Nc3ccccc3)ccc2O[C@H]1CN(C)C	1.0	5.4
3	C[C@H]1CN([C@@H](C)CO)C(=O)c2cc(NS(=O)(=O)c3ccccc3)ccc2O[C@H]1CN(C)C(=O)Nc1cccc2ccccc12	-0.5	8.2
65	COc1ccccc1CCn1cc(C#N)c(=O)[nH]c1=O	0.5	7.6
